# High-throughput results (PubChem BioAssay)
# Calb FLC = C. albicans growth inhibition with fluconazole, primary screen, CaCi-2 strain, Alamar Blue fluorescence; 300,000 tested, 0.57% active; AID 1979, 2009; C. albicans CaCi-2 (fluconazole-resistant clinical isolate) + fluconazole, 48 h; growth inhibition, % (concentration not given with the values);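 active = most replicates above 75%; inconclusive = exactly half above 75%; inactive = most below 75%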;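 also: all wells also contain fluconazole at 8 µg/ml as a sub-toxic cotreatment; 0% = median of DMSO wells and 100% = median of geldanamycin control wells; wells of about 8 µL received 7.5 nL stock; the first replicate is given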
# T cruzi repl = inhibitors of intracellular T. cruzi growth, primary screen, luminescence, NIH3T3 host cells; T. cruzi beta-gal in NIH3T3, 90 h; inhibition, % (test concentration not listed); 300,000 tested, 1.4% active; AID 1885, 2009;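 active = mean inhibition across valid replicates above about 55%, limit read from the data; inconclusive = mean below that limit but half or more replicates reach it; inactive = mean below it, under half of replicates reach it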;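 also: signal also drops with host cell toxicity which is not excluded here; 0% = plate median of DMSO wells and 100% = zero luminescence signal; higher percent means less beta-gal luminescence so fewer parasites; stock transfer was 50 nL into about 50 µL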
# MLL AF4-AF9 inh = inhibitors of AF4 peptide binding to AF9, primary screen, biochemical, AlphaScreen, biotin-AF4 peptide, FLAG-AF9, single point; Protein AF-9 (Homo sapiens), P42568; inhibition, % at 10 µM; 350,000 tested, 0.47% active; AID 651704, 2012;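 active = every replicate reaching a set inhibition limit, whatever the replicate mean, cut at about 25% in these data; inconclusive = mean inhibition reaches that limit but some replicates miss it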;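 also: 0% = plate neutral control median and 100% = total signal loss; the record names both 10 and 1 µM as test concentration; the first replicate is given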
# Target sequence (P42568 whole entry, looked up): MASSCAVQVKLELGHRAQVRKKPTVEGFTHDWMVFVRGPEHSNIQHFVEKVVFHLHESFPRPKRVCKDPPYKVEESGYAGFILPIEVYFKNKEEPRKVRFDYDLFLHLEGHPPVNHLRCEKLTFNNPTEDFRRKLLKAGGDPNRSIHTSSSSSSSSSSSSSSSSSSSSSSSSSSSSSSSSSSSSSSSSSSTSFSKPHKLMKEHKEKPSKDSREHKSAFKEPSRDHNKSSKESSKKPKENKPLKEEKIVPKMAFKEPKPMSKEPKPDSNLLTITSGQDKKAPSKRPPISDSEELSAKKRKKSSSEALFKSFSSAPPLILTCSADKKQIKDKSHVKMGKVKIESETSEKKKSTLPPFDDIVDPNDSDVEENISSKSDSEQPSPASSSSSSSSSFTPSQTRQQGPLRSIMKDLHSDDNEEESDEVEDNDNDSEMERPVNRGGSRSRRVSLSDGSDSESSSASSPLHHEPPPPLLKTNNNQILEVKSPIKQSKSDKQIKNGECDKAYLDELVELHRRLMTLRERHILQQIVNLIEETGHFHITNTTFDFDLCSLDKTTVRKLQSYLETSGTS
# ALR H2O2 inh = inhibitors of human ALR sulfhydryl oxidase, primary screen, biochemical, H2O2 detection, HRP-luminol luminescence, single point; AID 485317, 2010; inhibition, % (no concentration beside the values); 290,000 tested, 3.8% active; purified ALR, DTT oxidation; FAD-linked sulfhydryl oxidase ALR (Homo sapiens), P55789;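 active = mean and each replicate at 75% or more; inconclusive = only one of the two met; inactive = neither met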;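 also: stock transfer was 7.5 nL into about 7.5 µL; 0% = neutral wells and 100% = wells with inactivated enzyme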
# Target sequence (P55789 whole entry, looked up): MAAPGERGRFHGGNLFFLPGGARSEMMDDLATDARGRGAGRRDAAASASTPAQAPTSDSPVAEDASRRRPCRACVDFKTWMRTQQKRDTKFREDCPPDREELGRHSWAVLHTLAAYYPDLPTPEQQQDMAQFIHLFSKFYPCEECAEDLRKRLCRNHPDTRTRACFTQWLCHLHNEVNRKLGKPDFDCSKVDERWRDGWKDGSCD
# FGF22 binding = binders of human FGF22 protein, primary screen, FGF22 synaptogenesis inhibitor project, biophysical, thermal shift, single point | Fibroblast growth factor 22 (Homo sapiens), Q9HCT0 | recombinant FGF22 thermal shift, SYPRO orange fluorescence; percent of sucrose octasulfate shift, DMSO zero | calls only at 9.99 µM | 340,000 tested, 1.5% active;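 active = melting point raised past a set limit in the mean and every replicate; inconclusive = no clear call; three in four hits are not shown here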
# Target sequence (Q9HCT0 whole entry, looked up): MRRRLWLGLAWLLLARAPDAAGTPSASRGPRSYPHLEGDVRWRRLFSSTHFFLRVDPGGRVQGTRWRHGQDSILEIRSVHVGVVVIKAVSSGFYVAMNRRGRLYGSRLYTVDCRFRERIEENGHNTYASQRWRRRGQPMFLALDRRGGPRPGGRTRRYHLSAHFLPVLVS
# rRNA inh HTS = reduced GFP signal of wild-type E. coli, primary screen, bacterial rRNA inhibitor project, GFP/RFP fluorescence, OD600, single point; E. coli WT GFP vs humanized-ribosome RFP mutants, 24 h; active compounds read low; DMSO median 0, no signal -100; GFP signal change (wild-type ribosome), % (concentration not given with the values); 350,000 tested, 1.6% active;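 active = significant combined selectivity score with lowered wild-type GFP, culture density cut under 30%, mutant RFP and density less affected; inactive = any of these conditions unmet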; also: one replicate is shown; some compounds called inactive have numbers as strong as hits
# Beta apoptosis = inhibitors of cytokine-induced beta cell apoptosis, primary screen, luminescence | AID 435005, 2010 | 300,000 tested, 0.8% active | INS-1E cytokine-induced death, ATP luminescence, 48 h; percent of positive-control rescue, neutral wells zero | protection from apoptosis, % (no concentration beside the values);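 active = all replicates at 75% or more, or half of them and the mean; inconclusive = half reach 75% but not the mean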;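 also: 0% = cytokine-treated negative control wells and 100% = positive control rescue; higher means more ATP so stronger rescue from cytokine killing; wells of about 40 µL received 100 nL stock; the first replicate is given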
# RanGTP-Impb inh = inhibitors of RanGTP-importin-beta interaction, primary screen, biochemical, FRET, CFP-Ran, YFP-importin-beta, homogeneous | cell-free CFP-Ran/YFP-importin-beta FRET ratio | inhibition, % (no concentration beside the values) | 300,000 tested, 1.1% active | AID 2216, 2009;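 active = most replicates above 15%; inconclusive = exactly half above 15%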;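 also: 0% = DMSO wells and 100% = Ran loaded with GDP instead of GTP; wells of about 40 µL received 100 nL stock; the first replicate is given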
# rRNA inh HTS OD600 = recorded beside rRNA inh HTS, whose call it bears; OD600 change, %; measured here: OD600 growth;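 optical density of the mix in the first replicate; 0 = DMSO median and -100 = no signal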
# rRNA inh HTS RFP = recorded beside rRNA inh HTS, whose call it bears; RFP signal change, %; measured here: RFP humanized mutant strains;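 first replicate; 0 = DMSO median and -100 = no signal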
# An asterisk follows results filed as active; i = inactive; ? = inconclusive; . = no result given. An excerpt; count on the stated rates, not on these rows.
SMILES,Calb FLC,T cruzi repl,MLL AF4-AF9 inh,ALR H2O2 inh,FGF22 binding,rRNA inh HTS,rRNA inh HTS OD600,rRNA inh HTS RFP,Beta apoptosis,RanGTP-Impb inh
COc1ccc(/C=C/c2ccccc2)cc1[C@H]1[C@@H]2C=CCC[C@@]2(C)C(=O)N1Cc1ccccc1,-3,44,2.4,.,i,11,2,-4.3,0,2.7
COCCCn1c(=O)c2sccc2n2c(CCCC(=O)NCc3ccccc3OC)nnc12,-8,-8,-1.7,-8,i,2,3,1.3,2,6.0
O=c1oc2ccccc2c2oc3cc(O)c(O)cc3c12,68,-19,7.4,.,.,-51,-65,-26,1,1.8
CCOc1ccccc1N1CCN(C(=O)NC2CCCCC2)CC1,-5,2,-3.2,72,i,-16,-19,-0.2,-2,-1.0
O=C(CCCC1=NS(=O)(=O)c2ccccc2N1)N1CCN(c2ccccc2)CC1,-12,-1,.,53,.,.,.,.,6,-2.9
COc1ccc(CNC(=O)c2cc(=O)c3cc(C)cc(C)c3o2)cc1,-9,-10,0.6,1,i,14,6,-1.8,0,-2.6
OCC[C@H]1C[C@@H](O)[C@H](O)[C@]2(Cc3ccccc3CO2)O1,.,.,-2.5,-3,i,-22,-19,-23,1,.
Cc1ccc(NC2CCCN(C(=O)C3CCCC3)C2)cc1C (centres undefined),3,2,5.6,99*,i,-23,-22,-0.9,0,5.3
COc1ccc(/C=C/C(=O)OC(C)CN2CCOCC2)cc1 (centres undefined),13,-16,.,-4,.,.,.,.,0,7.3
O=C(CN(C(=O)C1CSC(=O)C1)c1ccccc1F)NCc1ccc2c(c1)OCO2 (centres undefined),-5,-6,.,-2,.,.,.,.,-6,-0.6
COc1ccsc1C(=O)NCCN1CCOCC1,0,0,0.1,0,i,10,10,0.1,3,-2.2
CCCCN(CC)S(=O)(=O)c1ccc2c(c1)CCCN2C(C)=O,-10,5,.,-1,.,.,.,.,-1,-0.8
C#CCOCCOCCOCCNc1nc(N2CCOCC2)nc(N2CCN(C(=O)CCCCCCCCCCNC(=O)[C@H](CO)n3cc(CCCCCN)nn3)CC2)n1,.,.,.,-12,i,-15,-26,19,-4,.
CCOC(=O)c1c(C)[nH]c(C)c1C(=O)COC(=O)c1ccc(S(=O)(=O)C(F)F)cc1,.,.,10,-2,i,-3,-1,-1.9,-3,.
CC(C)[C@H](Nc1ccc(S(=O)(=O)N2CCOCC2)cc1[N+](=O)[O-])C(=O)OCC(N)=O,-16,-10,3.6,-5,i,4,-6,2.5,5,-3.4
CC(=O)c1ccc(N2CCN(C(=O)CCCn3c(=O)[nH]c4ccc(Br)cc4c3=O)CC2)cc1,8,4,-19,.,i,5,8,1.7,9,-3.6
N#C/C(=C(/O)CN1CCN(c2ccccc2F)CC1)c1nc(-c2ccccc2)cs1,13,6,.,22,.,.,.,.,-3,-1.3
CC(C)c1ccc2[nH]c3c(c2c1)CCCC3=O,11,10,-5.3,-9,i,-19,-45,-11,3,-2.0
O=C1C2(CCCC13COC(c1ccc(O)cc1)OC3)COC(c1ccc(O)cc1)OC2 (centres undefined),0,12,0.1,4,i,17,4,5.5,5,6.6
COc1cc(C(=O)N2CCNCC2)cc(OC)c1OC,11,-5,0.2,13,i,-6,4,-5.7,.,0.7
O=C(Nc1ccc(NC(=O)c2ccccn2)cc1)C(=O)Nc1ccc2c(c1)OCCO2,25,-6,0.0,31,i,5,28,0.0,2,0.5
Cc1cccc(N2C(=O)CC(N3CCN(c4ccc(Cl)cc4)CC3)C2=O)c1 (centres undefined),-1,-3,2.5,0,i,7,7,1.3,.,-3.8
O=C(Nc1ccc2c(c1)OCCO2)c1cccc(C(=O)Nc2ccc3c(c2)OCCO3)c1,2,16,-0.6,-1,i,5,14,2.8,1,-2.3
CCc1ccc(NC(=O)COC(=O)C2(c3ccc(Cl)cc3)CCCC2)cc1,3,-3,-1.9,-4,i,-2,12,0.7,-2,2.7
Cc1cccc(C)c1N/C=C/c1onc(C)c1[N+](=O)[O-],-3,-23,.,-3,.,.,.,.,-5,-1.9

# More structures follow.
SMILES,Calb FLC,T cruzi repl,MLL AF4-AF9 inh,ALR H2O2 inh,FGF22 binding,rRNA inh HTS,rRNA inh HTS OD600,rRNA inh HTS RFP,Beta apoptosis,RanGTP-Impb inh
Cc1ccccc1-n1c(Cn2c(=O)sc3ccccc32)nnc1SCC(=O)N1CCOCC1,.,.,-1.4,-11,.,0,-6,0.0,-2,.
Cc1cccc(NC(=O)c2ccc(OCc3c(C)noc3C)cc2)c1C,.,.,-0.9,-8,i,9,6,-2.9,6,.
CC(C)(C)C(=O)N1CCN(c2ccc(NC(=O)c3ccco3)cc2)CC1,5,1,3.7,33,.,.,.,.,0,-3.0
CCCCn1c(N)c(N(CCOC)C(=O)CSc2n[nH]c(-c3ccc(C)cc3)n2)c(=O)[nH]c1=O,0,-8,-1.7,-17,i,12,4,-0.7,-8,0.1
Cc1ccc2nc(-c3ccc4c(c3)OCCO4)cn2c1,-7,-46,0.3,33,i,-13,-16,-4.9,31,-3.7
Cc1ccc(S(=O)(=O)NCC(=O)NCC2CCCCC2)cc1C,13,-8,0.7,97*,i,2,-13,-1.8,-2,0.4
CN1CCC(N(C)S(=O)(=O)c2ccc(NC(=O)COc3cccc(Cl)c3)cc2)CC1,9,56*,4.7,.,i,-6,-10,-3.0,-1,0.5
CC12CC3CC(C)(C1)CC(C(=O)N1CCN(C(=O)c4ccco4)CC1)(C3)C2,2,4,1.3,1,i,-3,1,0.2,4,1.7
COc1cccc(NC(=O)COC(=O)c2ccc(C)c(S(=O)(=O)N3CCCCC3)c2)c1,.,.,-1.3,-4,i,-14,-13,-5.8,-2,.
Cc1ccccc1N1CCN(C2CCCN(C(=O)c3cc(C(C)C)[nH]n3)C2)CC1 (centres undefined),0,7,5.3,14,i,-6,-6,1.2,7,4.5
CN(C)S(=O)(=O)c1ccc(C(=O)Nc2ccccc2[N+](=O)[O-])cc1,-6,-15,2.1,-1,i,-9,2,14,.,-1.7
CC(=O)c1ccc(NC(=O)C2CCC(C)NC2=O)cc1 (centres undefined),-3,-6,.,-8,.,.,.,.,0,0.1
Cc1ccnc(NC(=O)c2sc3ccccc3c2Cl)c1,-2,-20,.,-30,.,.,.,.,6,4.0
NC(=O)C1CCCN(Cc2ccc(Cl)cc2)C1 (centres undefined),-12,5,.,-11,.,.,.,.,-3,-0.3
Cc1cccc(C)c1NS(=O)(=O)c1ccc(NC(=O)c2ccc(Cl)c([N+](=O)[O-])c2)cc1,3,33,-2.0,-6,i,-4,3,0.5,0,?
C/C=C/c1ccccc1OCc1ccc(C(=O)O)o1,-6,-21,.,29,.,.,.,.,-5,-0.2
O=C(CNc1cccc(C(F)(F)F)c1)Nc1cccc(S(=O)(=O)N2CCCC2)c1,.,.,1.7,-26,i,.,.,.,-5,.
c1ccc(C2OC3c4cccc5cccc(c45)C3N2c2ccccc2)cc1 (centres undefined),13,10,.,-13,.,.,.,.,-6,-2.4
CCC(NS(=O)(=O)c1ccc(C)cc1)C(=O)N1CCOCCOCCOCCOCC1 (centres undefined),-3,1,0.5,-29,i,9,8,-5.3,1,?
c1ccc(Cc2nnc3sc(Nc4ccccc4)nn23)cc1,-12,-3,.,3,.,.,.,.,11,4.6
COc1cc(OC)cc(C(=O)N/N=C(\C)CC(=O)Nc2ccccn2)c1,-2,-5,-3.5,4,i,7,8,-2.2,4,2.1
CC(=O)C1=C(O)C(=O)N(c2ccc(C(=O)O)cc2)C1c1ccccc1 (centres undefined),19,-9,.,2,.,.,.,.,-1,-5.1
CCC(C)NC(=O)CCNS(=O)(=O)c1ccc(Br)cc1 (centres undefined),17,-11,.,4,.,.,.,.,-6,1.9
Cn1nnc(NC(=S)NC(=O)c2ccco2)n1,-10,5,.,?,.,.,.,.,-11,-2.0
Cc1ccc(NC(=O)CCNS(=O)(=O)c2ccc3[nH]c(=O)oc3c2)cc1N(C)C,5,-9,-14,10,i,3,8,0.3,-7,-0.1

# Going on with the list:
SMILES,Calb FLC,T cruzi repl,MLL AF4-AF9 inh,ALR H2O2 inh,FGF22 binding,rRNA inh HTS,rRNA inh HTS OD600,rRNA inh HTS RFP,Beta apoptosis,RanGTP-Impb inh
O=C(CCNS(=O)(=O)c1ccc(Br)cc1)NCCc1ccc(Cl)cc1,11,39,0.3,-4,i,-16,-23,0.7,-6,3.5
NC(=O)c1ccc(-n2nnnc2SCC(=O)Nc2ccccc2)cc1,-3,5,-1.6,3,i,4,14,-0.4,-5,-1.1
Cc1ccsc1C(=O)OCC(=O)Nc1cccc(F)c1,.,.,1.8,-2,i,-1,10,-4.0,1,.
CC(Oc1ccc(Cl)cc1Cl)C(=O)NCCCn1ccnc1 (centres undefined),-4,5,.,-10,.,.,.,.,-1,-0.6
COc1ccc(-c2csc(NC(=O)CCCc3nc4ccccc4c(=O)[nH]3)n2)cc1OC,.,-4,-12,-2,i,-18,-26,-1.5,4,9.7
CCN(CC)CCn1c(C)nc2ccccc21,-3,11,7.1,-22,i,8,1,-0.3,1,1.0
CSc1ccc(/C=N/n2c(C)nc3ccccc3c2=O)cc1,0,0,1.3,.,i,8,13,-2.2,.,-1.4
Cc1nn(Cc2ccc(Cl)cc2Cl)c(C)c1NC(=O)c1sc2ccccc2c1Cl,-2,29,.,-4,.,.,.,.,-2,4.6
Cc1ccc(S(=O)(=O)N2CCCN(C(=O)c3cc4ccccc4[nH]3)CC2)cc1,27,2,0.7,.,i,-14,-11,9.1,1,-3.5
COc1ccc(CCNC(=S)N2CCN(S(=O)(=O)c3ccc(F)cc3)CC2)cc1,2,-6,-3.4,.,i,6,15,0.3,0,-2.3
COc1nc(-c2ccc3c(c2)OCO3)n(-c2ccc(NC(=O)CSc3ccccc3)cc2)n1,13,27,-1.6,-5,i,-5,-13,1.2,3,-0.3
COc1ccc(O)c(CN2CCCC(N3CCN(c4ccc(F)cc4)CC3)C2)c1 (centres undefined),-5,39,10,34,i,10,10,1.6,.,3.0
CC(=O)NCc1ccc(S(=O)(=O)N2CCN(c3ccccn3)CC2)cc1,-3,-30,-0.9,32,i,3,6,-0.2,-3,-1.1
Cc1ncoc1C(=O)N1CCc2c([nH]c3ccccc23)C1c1ccccc1F (centres undefined),46,-14,5.6,0,i,-29,-45,-0.2,-6,-2.4
Cc1ccc(C(C(=O)NCC2CCCO2)N(C(=O)c2snc(C(N)=O)c2N)c2ccc3c(c2)OCCO3)cc1 (centres undefined),7,11,12,0,i,5,7,-1.0,10,3.6
Cc1ccc(-c2nnn(CC(=O)N(c3ccc(F)cc3)C(C(=O)NC3CCCC3)c3ccco3)n2)o1 (centres undefined),15,6,-2.0,.,i,9,9,-4.5,.,0.8
